FGF22 binding = FGF22 (human) thermal shift binding; Q9HCT0; recombinant FGF22 thermal shift, SYPRO orange fluorescence; percent of sucrose octasulfate shift, DMSO zero; calls only at 9.99 µM; hit rate 1.5% among 340,000; AID 651658;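 active means melting point raised past a set limit in the mean and every replicate; three in four hits are not shown here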
Target sequence (Q9HCT0 whole entry, looked up): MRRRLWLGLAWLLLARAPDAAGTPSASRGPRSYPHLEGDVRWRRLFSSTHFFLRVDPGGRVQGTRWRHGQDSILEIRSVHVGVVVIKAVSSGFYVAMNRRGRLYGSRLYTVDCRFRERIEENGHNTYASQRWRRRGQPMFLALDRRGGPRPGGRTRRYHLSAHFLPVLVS
Calls only; i = inactive. These rows are one share of the data; the hit share may differ from the screen's.

SMILES | FGF22 binding
CO[C@H]1CN(C)C(=O)c2cc(NC(=O)NC(C)C)ccc2OC[C@H](C)N(C(=O)C2CCC2)C[C@H]1C | i
COc1ccccc1-c1ccc([C@H]2[C@H]3CN(C(=O)c4ccncc4)CCCCN3[C@H]2CO)cc1 | i
COc1ccc(NC(=O)Nc2ccc3c(c2)C(=O)N([C@H](C)CO)C[C@H](C)[C@@H](CN(C)Cc2ccc(C(=O)O)cc2)O3)cc1 | i
COc1ccc(CN(C)C[C@@H]2Oc3c(NS(=O)(=O)c4ccc(F)cc4)cccc3C(=O)N([C@@H](C)CO)C[C@H]2C)cc1 | i
COc1ccc(NC(=O)N[C@@H]2CC[C@@H](CCNS(=O)(=O)c3cccc(Cl)c3)O[C@H]2CO)cc1 | i
C[C@H]1CN([C@@H](C)CO)C(=O)Cc2cc(NS(=O)(=O)c3cn(C)cn3)ccc2O[C@H]1CN(C)C(=O)Nc1ccccc1 | i
C[C@H](CO)N1C[C@H](C)[C@H](CN(C)Cc2ccc(Oc3ccccc3)cc2)Oc2ccc(NC(=O)Nc3cccc4ccccc34)cc2C1=O | i
C[C@H](CO)N1C[C@H](C)[C@H](CN(C)Cc2ccc(C(F)(F)F)cc2)Oc2ccc(NC(=O)C3CCCCC3)cc2C1=O | i
C[C@@H]1CN([C@@H](C)CO)S(=O)(=O)c2ccc(C#C[C@@H](C)O)cc2O[C@H]1CN(C)Cc1ccccc1 | i
C[C@H]1CN([C@@H](C)CO)C(=O)c2cc(C#CC3CCCC3)cnc2O[C@H]1CN(C)C(=O)c1ccncc1 | i
C[C@H](CO)N1C[C@H](C)[C@H](CN(C)C(=O)Nc2ccc(F)cc2)Oc2ccc(NC(=O)CCCN(C)C)cc2C1=O | i
C[C@@H]1CN([C@@H](C)CO)C(=O)c2cc(NC(=O)Nc3ccccc3)ccc2O[C@@H]1CN(C)CC1CC1 | i
COc1cccc(-c2ccc3c(c2)O[C@H](CN(C)C(=O)C2CC2)[C@H](C)CN([C@@H](C)CO)S3(=O)=O)c1 | i
CCCC(=O)Nc1ccc2c(c1)C(=O)N(C)C[C@H](OC)[C@H](C)CN(C(=O)c1cccnc1)[C@@H](C)CO2 | i
O=C(C[C@@H]1CC[C@H]2[C@@H](COC[C@H](O)CN2CC2CCOCC2)O1)NCC1CC1 | i
COc1ccccc1-c1cnc2c(c1)C(=O)N([C@H](C)CO)C[C@H](C)[C@H](CN(C)Cc1cccnc1)O2 | i
C[C@@H]1CN([C@H](C)CO)C(=O)c2cc(NC(=O)Cc3ccccc3)ccc2O[C@@H](C)CCCCO[C@@H]1CN(C)C | i
CN(C)C(=O)C[C@@H]1C[C@@H]2c3cc(NC(=O)Nc4ccccc4F)ccc3O[C@@H]2[C@H](CO)O1 | i
C[C@@H]1CCCCO[C@@H](CN(C)C(=O)NC2CCCCC2)[C@H](C)CN([C@H](C)CO)C(=O)c2cc(NS(=O)(=O)c3cccs3)ccc2O1 | i
C[C@@H]1CN([C@@H](C)CO)C(=O)c2cccc(NC(=O)CCCCCC(=O)Nc3ccccc3N)c2O[C@@H]1CN(C)C(=O)Nc1cccc2ccccc12 | i
O=C(N[C@H]1CC[C@@H](CCn2cc(-c3ccccn3)nn2)O[C@@H]1CO)c1ccccc1 | i
CCCNC(=O)N1CCC2(CC1)CN(C(=O)CC)[C@@H](CO)c1[nH]c3cc(OC)ccc3c12 | i
C[C@@H]1CN([C@@H](C)CO)C(=O)c2cc(NS(C)(=O)=O)ccc2O[C@@H]1CN(C)C(=O)Nc1ccc(C(F)(F)F)cc1 | i
COc1ccc(C#Cc2ccc([C@H]3[C@@H](CO)N4CCCCN(S(=O)(=O)c5cn(C)cn5)C[C@@H]34)cc2)cc1 | i
Cc1noc(C)c1NC(=O)N(C)C[C@@H]1Oc2ncc(C#CCC(C)C)cc2C(=O)N([C@@H](C)CO)C[C@H]1C | i
C[C@@H](NC(=O)C[C@@H]1CC[C@@H]2[C@H](COC[C@@H](O)CN2C(=O)Nc2ccccc2)O1)c1ccccc1 | i
C[C@@H]1CCCCO[C@H](CN(C)C(=O)NC2CCCCC2)[C@@H](C)CN([C@@H](C)CO)C(=O)c2cc(NC(=O)Cc3ccccc3)ccc2O1 | i
COc1ccccc1NC(=O)N[C@@H]1C=C[C@H](CC(=O)N2CCC(Cc3ccccc3)CC2)O[C@@H]1CO | i
CC(=O)N1[C@@H](CO)[C@@H]2c3ccccc3N(S(=O)(=O)c3cccc(C)c3)C[C@@H]21 | i
C[C@@H]1CCc2cnnn2COC[C@@H](c2ccccc2)NC1=O | i
CCCN(C)C[C@H]1Oc2ncc(Br)cc2C(=O)N([C@H](C)CO)C[C@H]1C | i
O=C(C[C@H]1C=C[C@@H](NC(=O)C2CCC2)[C@@H](CO)O1)NC1CCCCC1 | i
CO[C@@H]1CN(C)C(=O)c2ccc(NS(=O)(=O)c3ccc(C)cc3)cc2OC[C@H](C)N(C)C[C@H]1C | i
C[C@@H]1CN([C@@H](C)CO)S(=O)(=O)c2ccc(-c3cncnc3)cc2O[C@@H]1CN(C)C(=O)C1CCC1 | i
COCC(=O)N1CC2(CCN(S(C)(=O)=O)CC2)c2c(n(C)c3cc(OC)ccc23)[C@@H]1CO | i
CCCNC(=O)N[C@@H]1CC[C@@H](CC(=O)N2CCN(C)CC2)O[C@@H]1CO | i
COCC(=O)Nc1ccc2c(c1)C(=O)N(C)C[C@H](OC)[C@@H](C)CN(C(=O)COC)[C@H](C)CO2 | i
C[C@H](CO)N1C[C@H](C)[C@H](CN(C)S(C)(=O)=O)OCCCC[C@H](C)Oc2ccc(NS(=O)(=O)c3ccccc3)cc2C1=O | i
COC(=O)C[C@H]1CC[C@@H]2[C@H](COc3ccc(NC(=O)Nc4cc(C)cc(C)c4)cc3C(=O)N2C)O1 | i
C[C@H](CO)N1C[C@H](C)[C@@H](CN(C)C(=O)Cc2ccccc2)OCc2cn(nn2)CCCC1=O | i
C[C@@H]1CN([C@H](C)CO)C(=O)c2cccc(NS(=O)(=O)c3ccc(F)cc3)c2O[C@@H]1CN(C)S(C)(=O)=O | i
O=C(Nc1ccc2c(c1)[C@H]1C[C@H](CC(=O)N3CCc4ccccc4C3)O[C@H](CO)[C@H]1O2)c1cccnc1 | i
O=C(C[C@H]1C[C@H]2c3cc(NC(=O)CC4CC4)ccc3O[C@H]2[C@@H](CO)O1)NCc1ccccc1 | i
Cc1ccc(S(=O)(=O)N(C)C[C@@H]2OCCCC[C@H](C)Oc3ccc(NC(=O)Nc4ccc(F)cc4)cc3C(=O)N([C@@H](C)CO)C[C@@H]2C)cc1 | i
COc1ccc2c3c(n(C)c2c1)[C@@H](CO)N(C(C)=O)CC31CN(C(=O)c2cnccn2)C1 | i
C[C@@H]1CN([C@@H](C)CO)C(=O)c2cc(NC(=O)NC3CCCCC3)ccc2O[C@@H](C)CCCCO[C@H]1CN(C)S(=O)(=O)c1ccc(F)cc1 | i
CCNC(=O)C[C@@H]1CC[C@@H]2[C@H](COC[C@@H](O)CN2C(=O)c2ccccn2)O1 | i
Cc1ccc(S(=O)(=O)N[C@H]2C=C[C@H](CC(=O)NCc3ccc(Cl)c(Cl)c3)O[C@@H]2CO)cc1 | i

Five compounds already listed, arranged by heavy-atom count, descending:
SMILES | FGF22 binding
Cc1ccc(S(=O)(=O)N(C)C[C@@H]2OCCCC[C@H](C)Oc3ccc(NC(=O)Nc4ccc(F)cc4)cc3C(=O)N([C@@H](C)CO)C[C@@H]2C)cc1 | i
C[C@@H]1CN([C@@H](C)CO)C(=O)c2cc(NC(=O)NC3CCCCC3)ccc2O[C@@H](C)CCCCO[C@H]1CN(C)S(=O)(=O)c1ccc(F)cc1 | i
C[C@@H]1CN([C@H](C)CO)C(=O)c2cccc(NS(=O)(=O)c3ccc(F)cc3)c2O[C@@H]1CN(C)S(C)(=O)=O | i
O=C(C[C@H]1C[C@H]2c3cc(NC(=O)CC4CC4)ccc3O[C@H]2[C@@H](CO)O1)NCc1ccccc1 | i
Cc1ccc(S(=O)(=O)N[C@H]2C=C[C@H](CC(=O)NCc3ccc(Cl)c(Cl)c3)O[C@@H]2CO)cc1 | i

Other records:
SMILES | FGF22 binding
C[C@@H]1CN([C@H](C)CO)C(=O)c2cc(-c3cccnc3)cnc2O[C@H]1CN(C)C(=O)Nc1ccc(C(F)(F)F)cc1 | i
O=C(C[C@H]1CC[C@@H]2[C@H](COC[C@@H](O)CN2S(=O)(=O)c2ccc(F)cc2)O1)NCC1CCCCC1 | i
C[C@H]1CN([C@@H](C)CO)C(=O)c2cccc(NS(=O)(=O)c3ccccc3)c2O[C@H]1CN(C)C(=O)Nc1ccc2c(c1)OCO2 | i
Cc1noc(C)c1NC(=O)Nc1ccc2c(c1)C(=O)N([C@H](C)CO)C[C@H](C)[C@H](CN(C)S(=O)(=O)c1ccc(Cl)cc1)O2 | i
COc1ccc2c3c([nH]c2c1)[C@H](CO)N(C(=O)c1cccnc1)CC31CN(C(=O)c2cccnc2)C1 | i
COc1ccc(-c2cccc(-c3nc(C(=O)N(C)C)cc4c3[C@H](CCO)N([S@@](=O)C(C)(C)C)C4)c2)cc1 | i
C[C@H](CO)N1C[C@H](C)[C@@H](CN(C)C(=O)CC2CC2)Oc2cc(C#CCC3CCCC3)ccc2S1(=O)=O | i
Cc1noc(C)c1S(=O)(=O)Nc1ccc2c(c1)C(=O)N([C@H](C)CO)C[C@@H](C)[C@H](CN(C)Cc1ccc(C(=O)O)cc1)O2 | i
CO[C@H]1CN(C)C(=O)c2cc(NC(=O)Nc3cccc(F)c3)ccc2OC[C@H](C)N(C(=O)Nc2c(C)noc2C)C[C@H]1C | i
O=C(C[C@H]1C=C[C@@H](NC(=O)c2cnccn2)[C@H](CO)O1)NCc1ccccc1F | i
C[C@H]1CN([C@@H](C)CO)C(=O)c2cc(-c3cccnc3)cnc2O[C@@H]1CN(C)C(=O)Nc1ccc2c(c1)OCO2 | i
Cc1[nH]c2ccccc2c1CC(=O)Nc1ccc(Nc2cccnc2)c(Br)c1 | i
O=C(C1CCC1)N1CC2(C1)[C@H](c1ccccc1)[C@H](CO)N2C(=O)NC1CCCC1 | i
CNC[C@@H]1OCCCC[C@H](C)Oc2ccc(NS(C)(=O)=O)cc2C(=O)N([C@@H](C)CO)C[C@@H]1C | i
C[C@@H]1CN([C@@H](C)CO)C(=O)Cc2cc(NC(=O)Nc3ccc4c(c3)OCO4)ccc2O[C@@H]1CN(C)C | i
C[C@H](CO)N1C[C@H](C)[C@@H](CN(C)S(=O)(=O)c2ccc(Cl)cc2)Oc2ccc(NC(=O)CCC(F)(F)F)cc2C1=O | i

The final 2 records of the part above lead into the next.
SMILES | FGF22 binding
C[C@@H]1CN([C@@H](C)CO)C(=O)Cc2cc(NC(=O)Nc3ccc4c(c3)OCO4)ccc2O[C@@H]1CN(C)C | i
C[C@H](CO)N1C[C@H](C)[C@@H](CN(C)S(=O)(=O)c2ccc(Cl)cc2)Oc2ccc(NC(=O)CCC(F)(F)F)cc2C1=O | i
COCc1cn(CC[C@H]2CC[C@@H](NC(=O)Nc3ccc4c(c3)OCO4)[C@H](CO)O2)nn1 | i
CC(C)NC(=O)Nc1ccc2c(c1)C(=O)N([C@H](C)CO)C[C@@H](C)[C@@H](CN(C)Cc1ccc(C(=O)O)cc1)OCCCC[C@H](C)O2 | i
CCNC(=O)C[C@@H]1CC[C@@H]2[C@@H](COc3ccc(NC(=O)Nc4cccc(F)c4)cc3C(=O)N2C)O1 | i
COCC(=O)Nc1ccc2c(c1)OC[C@H](C)N(Cc1ccccc1F)C[C@@H](C)[C@@H](OC)CN(C)C2=O | i
CNC(=O)C[C@@H]1CC[C@@H]2[C@H](COC[C@H](O)CN2S(=O)(=O)c2ccc(Oc3ccccc3)cc2)O1 | i
CS(=O)(=O)N1CC2(C1)[C@H](c1ccccc1)[C@H](CO)N2CCC(F)(F)F | i
C[C@H]1CN([C@@H](C)CO)C(=O)c2cccc(NC(=O)CCCCCC(=O)Nc3ccccc3N)c2O[C@@H]1CN(C)S(=O)(=O)c1ccccc1 | i
O=C(C[C@H]1CC[C@H]2[C@@H](COC[C@H](O)CN2Cc2ccccc2F)O1)N[C@H]1CCN(Cc2ccccc2)C1 | i
O=C(C[C@H]1C[C@@H]2c3cc(NC(=O)Nc4ccccc4F)ccc3O[C@@H]2[C@@H](CO)O1)NCc1cc(F)ccc1F | i
O=C(Nc1cc(F)ccc1F)N1C[C@H]2[C@@H](c3ccccc31)[C@H](CO)N2Cc1ccncc1 | i
C[C@@H]1CN([C@@H](C)CO)C(=O)c2cccc(NS(=O)(=O)c3ccccc3)c2O[C@@H]1CN(C)S(=O)(=O)c1ccccc1 | i
Cc1ccc(F)cc1S(=O)(=O)N[C@@H]1CCN(Cc2ccc(-c3ccccc3)cc2)C1 | i
CC(C)NC(=O)N[C@@H]1C=C[C@H](CC(=O)NCCCN(C)C)O[C@H]1CO | i
Cc1ccc(S(=O)(=O)N(C)C[C@H]2Oc3ccc(NS(C)(=O)=O)cc3C(=O)N([C@H](C)CO)C[C@@H]2C)cc1 | i
C[C@H](CO)N1C[C@H](C)[C@H](CN(C)S(=O)(=O)c2ccc(F)cc2)Oc2c(NC(=O)c3cnccn3)cccc2C1=O | i
CC(C)NC(=O)NCC[C@H]1CC[C@H](NS(=O)(=O)c2ccc(Oc3ccccc3)cc2)[C@H](CO)O1 | i
CCC(=O)N1CC2(C1)[C@H](c1ccc(-c3cccc(F)c3)cc1)[C@H](CO)N2CC1CC1 | i
C[C@@H]1CN([C@H](C)CO)C(=O)c2cc(NS(=O)(=O)c3ccc(Cl)cc3)ccc2O[C@@H]1CN(C)Cc1ccccc1 | i
CC(C)C#Cc1cnc2c(c1)C(=O)N([C@@H](C)CO)C[C@H](C)[C@H](CN(C)C(=O)c1ccccc1)O2 | i
O=C(Nc1ccc2c(c1)OCO2)N[C@@H]1CC[C@H](CCNC(=O)C2CCOCC2)O[C@@H]1CO | i
C[C@@H]1CN([C@H](C)CO)C(=O)c2cccc(NS(=O)(=O)c3ccc(F)cc3)c2O[C@H]1CN(C)Cc1ccc(-c2ccccc2)cc1 | i

From PubChem
